Rango complex inh: qHTS Assay for Inhibitors of Rango (Ran-regulated importin-beta cargo) - Importin beta complex formation; 0.031% of 340,000 active; AID 540263, 2011; Potency, µM (doses to about 92.2 µM), without a hit: top-dose inhibition of complex formation; Rango CFP/YFP FRET sensor + importin beta, 45 min; active = rising FRET ratio curve, often small or poorly fitted; inconclusive = mostly compound fluorescence or quenching in the first reads; inactive = flat curves in all reads;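 note: potency is the fitted concentration of half-maximal effect; 0% = DMSO wells and 100% = buffer wells lacking importin beta; nearly all actives have a fitted effect of over 15% in size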
Target sequence (Q14974 whole entry, looked up): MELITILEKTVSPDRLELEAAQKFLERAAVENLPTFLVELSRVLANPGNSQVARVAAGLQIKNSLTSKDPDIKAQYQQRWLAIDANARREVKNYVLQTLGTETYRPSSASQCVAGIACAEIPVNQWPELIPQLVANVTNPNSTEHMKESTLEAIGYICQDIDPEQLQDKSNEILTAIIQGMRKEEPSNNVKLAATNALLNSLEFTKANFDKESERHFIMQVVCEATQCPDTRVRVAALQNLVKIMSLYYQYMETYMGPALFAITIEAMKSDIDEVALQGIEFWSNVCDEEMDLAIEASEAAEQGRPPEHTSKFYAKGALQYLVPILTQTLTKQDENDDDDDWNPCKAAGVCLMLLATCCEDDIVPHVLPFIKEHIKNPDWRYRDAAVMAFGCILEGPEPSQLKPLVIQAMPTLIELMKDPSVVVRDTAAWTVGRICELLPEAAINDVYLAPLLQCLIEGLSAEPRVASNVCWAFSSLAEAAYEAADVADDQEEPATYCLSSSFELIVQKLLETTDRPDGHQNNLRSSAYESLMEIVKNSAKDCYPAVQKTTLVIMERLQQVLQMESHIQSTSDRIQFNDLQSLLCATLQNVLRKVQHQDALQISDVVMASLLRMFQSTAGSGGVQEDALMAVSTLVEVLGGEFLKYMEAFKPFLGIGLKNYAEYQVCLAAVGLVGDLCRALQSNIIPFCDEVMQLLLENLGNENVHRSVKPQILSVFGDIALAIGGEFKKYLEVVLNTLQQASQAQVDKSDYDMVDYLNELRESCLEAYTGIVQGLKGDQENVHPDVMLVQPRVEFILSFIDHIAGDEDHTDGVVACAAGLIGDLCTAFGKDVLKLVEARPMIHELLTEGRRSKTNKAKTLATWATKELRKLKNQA
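FRET biosensor (snurportin 1 IBB flanked by EYFP and cerulean), 50 nM, with compound 5 min, then 0.125 microM importin beta in PBS, 1 mM DTT, 0.02% Tween-20, 0.1% BSA. CFP/YFP ratio read after 45 min at room temperature; pre-read flags interference.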
Rango dissoc inh: qHTS Assay for Inhibitors of RanGTP induced Rango (Ran-regulated importin-beta cargo) - Importin beta complex dissociation | AID 540253, 2011 | Biochemical FRET Rango-importin beta, RanGTP-induced dissociation | Snurportin-1 (Homo sapiens) + GTP-binding nuclear protein Ran (Homo sapiens) + Importin … | Potency, µM (doses to about 46.1 µM), inactives show at the top dose activity change, negative = inhibition | 0.071% of 340,000 active; active means falling FRET ratio curve, often poorly fitted, with flat reads before Ran was added; inconclusive means other falling curves, or compound fluorescence or quenching; inactive means flat or rising ratio curve;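 note: potency is the fitted concentration of half-maximal effect; % of control where 0% means no effect; nearly all actives have a fitted effect of over 45% in size; -100% = wells without RanGTP and RCC1; the record marks most hits as doubtful in a second field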
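Quantitative HTS using a FRET biosensor: 0.1 uM Rango, 0.25 uM importin beta, 0.6 uM Ran, 2 mM GTP, 0.2 uM RCC1 final, PBS with DTT, Tween-20 and BSA. Post-read taken 45 min after Ran addition.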
miR-21 FLuc: qHTS Assay for Modulators of miRNAs and/orActivators of miR-21; HeLa miR-21 FLuc reporter, luciferase, 48 h; Potency, µM (doses to about 38.3 µM), inactives show at the top dose reporter change, positive = more light; 340,000 tested, under 10 active; AID 2288, 2010; active = well fitted rising curve with a large enough effect; inconclusive = small, poorly fitted or top-dose-only effect; inactive = no such curve, though single readings can be large or run the other way;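 note: % of control where 0% means no effect; miR-21 action dims this reporter so a rising signal means less miR-21 action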
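Using DMEM plus 10% FBS, HeLa miR-21-FLuc cells are incubated with test compounds (final up to about 40uM) for 48 hours; firefly luciferase signal is then imaged following reagent-mediated lysis.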
GLA inh pH 4.5: qHTS Assay for Inhibitors of Human alpha-Galactosidase at pH 4.5; Alpha-galactosidase A (Homo sapiens), P06280; purified enzyme, 4-MU-alpha-Gal fluorescence, pH 4.5; activity change, negative = inhibition, % at 105 µM; 230,000 tested, under 10 active; AID 1467, 2008; inconclusive = small, poorly fitted or top-dose-only inhibition, or a rising curve; inactive = flat fitted curve, though single readings scatter; no compound was filed as active;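 note: 0% = full activity with enzyme and -100% = basal without enzyme; dose as in the result columns while the protocol names 77 µM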
* hit, by the source's call; ? = inconclusive; nt = no result given; [ ] = dose if it differs, or a comment. The list is partial. The share of hits here may be higher or lower than overall.

miR-21 FLuc | Rango complex inh | GLA inh pH 4.5 | Rango dissoc inh | SMILES
0.8% | 4.3% | nt | -7.8% | COc1cc(C(=O)N2CCN(c3ccccn3)CC2)cc(OC)c1OC
9.3% | -2.7% | nt | 14.4% | CC(=O)N1c2ccc(S(=O)(=O)NCCC(=O)NCc3ccc(Cl)cc3)cc2CC1C (stereo not given)
-10.5% | -0.7% | -10.3 | 10.7% | Cc1ccc(/C=C(/C#N)C(=O)NC(C)c2ccccc2)o1 (stereo not given)
-12.5% | 0.9% | 2.3 | -4.2% | COc1ccccc1NC1=NC(CO)(CO)CS1
-54.3% | -0.7% | 0.6 | -11.5% | c1ccc(CSc2ccc(-c3ccco3)nn2)cc1
0.7% | 0.6% | 1.8 | -3.3% | CN(Cc1ccccc1)C(=O)N[C@@H](Cc1ccccc1)C(=O)O
-7.5% | -6.9% | 6.9 | -20.1% | Cc1ccccc1/[N+]([O-])=C/c1cccs1
nt | 2.4% | nt | -26.0% | Cc1cc(NS(=O)(=O)c2ccc(NC(=O)CN3C(=O)NC(C)(c4ccccc4)C3=O)cc2)nc(C)n1 (stereo not given)
5.3% | 4.0% | -9.2 | -13.8% | CCc1nnc(NC(=O)CSc2nc3cc(OC)c(OC)cc3cc2C)s1
-0.9% | 0.0% | nt | 3.3% | O=C(CN1CCN(Cc2ccc3c(c2)OCO3)CC1)NCC(F)(F)F
-23.4% | -5.1% | -0.4 | 24.6% | Clc1ccc(Cc2nc(-c3cccnc3)no2)cc1
? | 5.7% | 1.0 | 8.5% | CCC(C)(C)c1ccc(OCCCC[n+]2ccccc2)c(C(C)(C)CC)c1

Next section
miR-21 FLuc | Rango complex inh | GLA inh pH 4.5 | Rango dissoc inh | SMILES
nt | 5.5% | nt | -7.6% | Cc1ccnc(NC(=O)COc2ccc3c(c2)CCC3)c1
0.0% | -1.8% | nt | 10.0% | COc1ccc(S(=O)(=O)N(C)CC(=O)NC2CC2)cc1OC
-0.5% | 1.3% | -5.1 | -3.7% | O=C1N=C(N2CCCCC2)S/C1=C\c1ccncc1
-0.2% | -1.7% | -0.8 | 16.0% | CCO[C@@H]1OC(C(=O)NC2CC2)=C[C@H](c2ccc(C(F)(F)F)cc2)[C@H]1CCCO
0.6% | 5.1% | 3.2 | -3.0% | Cc1ccccc1-n1c(=O)c2ccccc2n(CC(=O)NCc2ccco2)c1=O
nt | -1.3% | nt | 1.5% | O=C(CN1C(=O)NC2(CCCC2)C1=O)OCc1c(F)cccc1Cl
-15.2% | -0.9% | -5.6 | 4.7% | CCOC(=O)c1cc2ccc(OC)c(OC)c2c(=O)s1
-4.6% | -2.0% | 4.4 | -1.3% | CSc1ccc(C(=O)C2CCCN(S(=O)(=O)c3c(C)noc3C)C2)cc1 (stereo not given)
2.8% | ? | -14.6 | ? | O=C(O)c1ccc2nc(-c3ccco3)c(-c3ccco3)nc2c1
-5.2% | ? | nt | -2.1% | COCCN1CCn2c(nc3cc(NS(C)(=O)=O)ccc32)C1
-2.5% | 3.1% | -10.3 | -7.9% | Cc1ccc(-n2c(SCC(=O)N3c4ccccc4Sc4ccccc43)nnc2-c2ccncc2)cc1
nt | 0.0% | nt | -18.3% | COc1ccccc1C(=O)NCC(c1cccs1)N1CCc2ccccc21 (stereo not given)

Carrying on:
miR-21 FLuc | Rango complex inh | GLA inh pH 4.5 | Rango dissoc inh | SMILES
-8.0% | 3.7% | -26.2 | -5.9% | Cc1cc(C)nc(SCc2ccc(C(=O)N/N=C/c3ccncc3)cc2)n1
nt | -2.9% | nt | -10.0% | O=C(CN1CCN(C(=O)CNC(=O)c2ccc(N3CCCC3=O)cc2)CC1)Nc1ccccc1Cl
nt | 1.4% | nt | 0.0% | O=C(COc1ccc(Cl)cc1Br)Nc1ccccc1N1CCCC1
nt | 0.6% | 6.9 | 4.8% | COC(=O)C1=C(C(=O)OC)[C@@H]2Nc3ccccc3[C@@]23C[C@@H](C(=O)OC)N(C(=O)c2ccco2)C3=N1
3.0% | ? | 1.3 | 3.8% | O=C(COc1ccc(Cl)cc1)NCc1nnc(SCC(=O)c2ccccc2)o1
-0.3% | 1.4% | 2.9 | 0.1% | O=C(Nc1ccon1)c1ccc(S(=O)(=O)N2CCOCC2)cc1
nt | 1.4% | nt | 5.4% | c1ccc(CNCCCNCCCCNCCCNCc2ccccc2)cc1
nt | -0.8% | nt | -9.1% | Cc1ccc(C(=O)O)cc1NC(=O)C1CCN(S(=O)(=O)c2ccc3c(c2)OCCO3)CC1
9.4% | -4.1% | 3.7 | -1.2% | Cc1nc2nc3c(cn2n1)C(=O)CCC3
-1.2% | -0.5% | 0.7 | -7.0% | CCOC(=O)C1=C(C)NC(=O)NC1c1ccc(N(CC)CC)cc1 (stereo not given)
-0.6% | -3.7% | 4.7 | ? | COc1cccc2cc(C(C)N(CCCN3CCOCC3)C(=S)Nc3c(C)cccc3C)oc12 (stereo not given)
-18.8% | 1.2% | 1.4 | 3.9% | CCSc1cc(C)nc2c(-c3ccccc3)c(C)nn12

Sorted by the number under GLA inh pH 4.5 (lowest first): 3 of the compounds above
SMILES | GLA inh pH 4.5
CCOC(=O)C1=C(C)NC(=O)NC1c1ccc(N(CC)CC)cc1 (stereo not given) | 0.7
O=C(COc1ccc(Cl)cc1)NCc1nnc(SCC(=O)c2ccccc2)o1 | 1.3
COc1cccc2cc(C(C)N(CCCN3CCOCC3)C(=S)Nc3c(C)cccc3C)oc12 (stereo not given) | 4.7

New compounds follow.
miR-21 FLuc | Rango complex inh | GLA inh pH 4.5 | Rango dissoc inh | SMILES
nt | -0.1% | nt | 39.4% | O=C(Nc1cc(Cl)ccc1N1CCOCC1)c1ccc(N2CCCCC2)c([N+](=O)[O-])c1
-4.6% | -2.6% | -0.2 | -19.0% | C=CCNc1sc(C(=O)c2ccccc2)c(N)c1-c1nc2ccccc2s1
7.7% | 2.4% | -3.5 | 7.7% | CCOC(=O)CC(=O)CSc1nc2c(sc(=S)n2-c2ccccc2)c(=O)[nH]1
-55.7% | 3.5% | 0.8 | 12.1% | O=C(NCc1cccs1)Nc1ccc2c(c1)OCO2
nt | 2.4% | nt | -6.2% | CCCCN1C(=O)C(=O)N(CC(=O)c2ccc3c(c2)OCO3)C1=O
-11.3% | 2.9% | -10.9 | -1.0% | O=C(Nc1ccc2c(c1)OCO2)C1CCCN1C(=O)Nc1ccccc1F (stereo not given)
-0.4% | 0.6% | -1.0 | -7.0% | Cc1cc(C)cc(NC(=O)Nc2cccc(S(N)(=O)=O)c2)c1
0.1% | 0.3% | -1.2 | 17.7% | Cc1ccc(S(=O)(=O)N2CCN(C(=O)N(C)C)CC2)cc1
-1.6% | -2.5% | nt | 10.0% | Cc1ccc(-c2nnc(SCC(=O)NC3CCCC3)n2C)cc1
4.9% | 2.7% | 0.3[21.1 µM] | -11.6% | CCC(=O)Nc1nc2ccc(NC(=O)c3cc(OC)c(OC)c(OC)c3)cc2s1
? | 14.7% | nt | 7.0% | CN(C)CCCn1cnc2c(c1=N)C(c1ccccc1)c1ccc3ccccc3c1O2 (stereo not given)
6.5% | 0.1% | nt | 0.0% | CCC1CCC(N2CCN(c3ccc([N+](=O)[O-])cc3)CC2)CC1 (stereo not given)

3 of these compounds, set out differently.
SMILES,miR-21 FLuc,Rango complex inh,GLA inh pH 4.5,Rango dissoc inh
O=C(NCc1cccs1)Nc1ccc2c(c1)OCO2,-55.7%,3.5%,0.8,12.1%
Cc1ccc(S(=O)(=O)N2CCN(C(=O)N(C)C)CC2)cc1,0.1%,0.3%,-1.2,17.7%
CN(C)CCCn1cnc2c(c1=N)C(c1ccccc1)c1ccc3ccccc3c1O2 (stereo not given),?,14.7%,nt,7.0%

The list goes on.
miR-21 FLuc | Rango complex inh | GLA inh pH 4.5 | Rango dissoc inh | SMILES
-39.1% | -0.5% | -0.6 | 4.4% | O=C(Nc1cccc2ccccc12)/C(Cl)=C/c1ccccc1
1.0% | 0.4% | 5.8 | 12.4% | CC(OC(=O)Cn1c(C(F)(F)F)nc2ccccc21)C(N)=O (stereo not given)
-4.4% | 1.0% | -2.8 | -8.3% | CCC(C)n1cnc2c(c1=O)c1nc3ccccc3nc1n2-c1ccc2c(c1)OCCO2 (stereo not given)
-0.1% | nt | -7.5 | nt | Cc1ccc(OCc2nnc(NC(=O)OCC(C)C)s2)c(C)c1
2.8% | -0.6% | nt | 11.0% | O=C(CSc1nnc(CNC(=O)c2cccs2)o1)Nc1cccc(F)c1
-10.1% | -1.3% | -0.8 | 0.0% | COc1ccc(OCCSc2nnc3c(Cl)cc(Cl)cn23)cc1
5.4% | -0.7% | -16.0 | -1.3% | N#CC1(Nc2cccc(Br)c2)C(=O)Nc2ccccc21 (stereo not given)
-29.3% | 2.5% | 5.3 | 15.1% | O=C(Nc1ccc(Br)cc1)c1ccc(CSC2=NCCS2)cc1
2.0% | 0.0% | nt | 22.1% | COc1ccccc1N1CCN(Cc2ccc(-c3ccccc3[N+](=O)[O-])o2)CC1
-47.0% | -0.8% | nt | 10.8% | Cc1cc(Cl)cc2sc(NC(=O)c3ccco3)nc12
nt | 2.5% | nt | -6.1% | CC(=O)NCCc1ccc(C(=O)COC(=O)c2ccco2)cc1
-6.3% | 0.0% | 4.3 | -1.8% | COc1cc(N=c2oc3c(C)ncc(CO)c3cc2C(N)=O)cc(OC)c1OC

The listing continues.
miR-21 FLuc | Rango complex inh | GLA inh pH 4.5 | Rango dissoc inh | SMILES
1.0% | 2.7% | -3.6 | -5.9% | NC(=S)Cc1nc2n(n1)Cc1ccccc1-2
12.1% | -0.3% | -6.1 | -10.0% | O=C(CSc1ccc(Cl)cc1)N1CCC(c2nc3ccccc3s2)CC1
nt | -4.3% | nt | 1.0% | CCCCN(C1CCS(=O)(=O)C1)S(=O)(=O)c1ccc(OC)cc1 (stereo not given)
nt | -3.3% | nt | 15.6% | CCOC(=O)N1CCN(C(=O)c2ccc(S(=O)(=O)Nc3cccc(C(F)(F)F)c3)cc2)CC1
-8.6% | 6.6% | -10.0 | -12.8% | CCN1C(=O)/C(=C\C=C2/C=CC=CN2CC)SC1=S
-3.7% | 5.8% | -1.9 | -8.6% | C#CCOCCOCCOCCNc1nc(N2CCN(C(=O)[C@H]([C@@H](C)O)n3cc(CCCCN)nn3)CC2)nc(N2CCN(C(=O)[C@H](C)n3cc(CCCN=C(N)N)nn3)CC2)n1
-2.3% | -4.5% | nt | -7.0% | COc1ccc(NC(=O)CSc2ccc3nnc(CCNC(=O)c4ccccc4)n3n2)cc1OC
-4.1% | 0.2% | 4.7 | 7.1% | CNS(=O)(=O)c1cccc(C(=O)OCC(=O)N2c3ccccc3CC2C)c1 (stereo not given)
-1.9% | ? | 3.4 | 0.5% | COC(=O)c1cc2occc2n1CC(=O)N(C)C1CCCCC1
2.7% | 0.1% | 4.3 | 6.8% | Cc1ccc(CS(=O)(=O)CCC(=O)NCCN2CCCC2)cc1
nt | -3.8% | nt | -14.9% | O=C1C=C(c2ccc(Oc3ccccc3)cc2)C[C@@H](c2ccc3c(c2)OCO3)C1
-2.8% | 11.8% | 3.9 | 4.5% | Cc1ccnc(N2CCC(C(=O)NCc3ccccc3F)CC2)n1

Further entries follow:
miR-21 FLuc | Rango complex inh | GLA inh pH 4.5 | Rango dissoc inh | SMILES
-18.6% | ? | -13.8 | 0.2% | CSc1nc2ccc(NC(=O)C3CC(=O)N(Cc4ccccc4)C3)cc2s1 (stereo not given)
0.0% | 0.9% | 3.6 | -1.4% | CC(=O)N1CC[n+]2c(-c3ccc(Cl)cc3)csc21
0.6% | 3.7% | nt | 19.6% | O=C(c1ccc(F)cc1)N1CCN(S(=O)(=O)c2ccc(Br)cc2)CC1
nt | ? | nt | -25.8% | Cn1c(=O)c2[nH]c(CCCc3ccc([N+](=O)[O-])cc3)nc2n(C)c1=O
-5.8% | 3.1% | 0.8 | -9.3% | S=C(Nc1ccc(Cl)cc1Cl)Nn1cnnc1

Assay outcomes from PubChem.
